Sa helicase inh: blocks Staphylococcus aureus DNA helicase. purified S. aureus helicase, fluorescence unwinding assay; about half of the hits fall short of the stated cut. inhibition, %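 (tested at about 80 µM)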. 0.05% of 120,000 active. AID 485395;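 active means both duplicates at 50% or more, or one of them with a favoured structure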;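 further: 0% = mean of negative control wells and 100% = mean of positive control wells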
MgrA-DNA mod: S. aureus MgrA-DNA binding modulation; 0.13% of 84,000 active; fluorescence polarization; inhibition, %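 (about 10 µg/mL by stock and volumes)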;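 active means above 50% in either of two replicates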;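 further: 0% = protein plus DNA without compound and 100% = DNA alone without protein; higher means less MgrA bound to DNA so lower polarization; one replicate is shown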
The depositor's hits bear a star; . = no result given. Not all compounds are listed (hit frequency here may not be typical).

Sa helicase inh,MgrA-DNA mod,Molecule
16,0.8,O=C(CNC(=S)N(Cc1ccccc1)Cc1ccccc1F)N1CCCC1
-15,3.9,CC1(C)CCCC(C)(C)N1Sc1ccccc1
-4,.,CCOC(=O)c1c(C)c(C)c(C)[nH]c1=S
-1,0.8,CCOC(=O)c1cccc(NC(=O)CCOc2ccccc2)c1
-23,.,Cc1cc(O)c(NC(=O)c2ccccc2Cl)cc1C
.,-0.4,O=c1cc[nH]c2cc(Cl)cc(Cl)c12
.,-2.0,Cc1nnc(SCC(=O)Nc2ccc(Cl)cc2Cl)c2ccccc12
-19,.,Cc1ccc(O)c(C(N)(C(F)(F)F)C(F)(F)F)c1
4,0.9,CC(=O)OC1C(=O)OC2[C@@H](C)C(n3ccc(=O)[nH]c3=O)O[C@H]12 (stereo partly drawn)
10,2.2,Cn1c(=O)c(C(=O)/C=C/C=C/c2ccccc2)c(O)c2ccccc21
-12,1.6,c1ccc(N=c2scc(-c3ccccc3)n2CCN2CCOCC2)cc1
-11,-0.3,Cc1nc2ccccc2c(C(=O)OCC(=O)Nc2ccc(Cl)cc2F)c1C
-20,-1.1,CN=C(Nc1cc(C(F)(F)F)ccc1-n1ccnc1)c1ccccc1
9,-1.2,Cc1cc(N2CCN(C)CC2)nc2ccc(NC(=S)NC3CC3)cc12
-28,.,COc1ccc(Br)cc1CNC(=O)CCn1c(=O)c2cccn2c2cccnc21

The final 7 records of the section above open the next one.
Sa helicase inh,MgrA-DNA mod,Molecule
4,0.9,CC(=O)OC1C(=O)OC2[C@@H](C)C(n3ccc(=O)[nH]c3=O)O[C@H]12 (stereo partly drawn)
10,2.2,Cn1c(=O)c(C(=O)/C=C/C=C/c2ccccc2)c(O)c2ccccc21
-12,1.6,c1ccc(N=c2scc(-c3ccccc3)n2CCN2CCOCC2)cc1
-11,-0.3,Cc1nc2ccccc2c(C(=O)OCC(=O)Nc2ccc(Cl)cc2F)c1C
-20,-1.1,CN=C(Nc1cc(C(F)(F)F)ccc1-n1ccnc1)c1ccccc1
9,-1.2,Cc1cc(N2CCN(C)CC2)nc2ccc(NC(=S)NC3CC3)cc12
-28,.,COc1ccc(Br)cc1CNC(=O)CCn1c(=O)c2cccn2c2cccnc21
4,1.1,O=C(NC1CCCCC1NC(=O)c1ccco1)c1ccco1 (stereo not drawn)
15,.,CCOc1ncccc1C(=O)NCC12CC3CC(CC(C3)C1)C2
.,-1.9,Fc1ccc2nc(C(F)(F)F)cc(N3CCOCC3)c2c1
8,.,N#Cc1ccc(/C=N/NC(=O)Cc2cn3ccsc3n2)cc1
-3,2.3,N#Cc1ccccc1CN1c2cccc3cccc(c23)S1(=O)=O
14,.,CN(C)C(=O)c1ccc(-c2cc(C(F)(F)F)n(C)n2)s1
.,-2.5,Cc1ccc(OCc2c(Cl)cccc2Cl)c([N+](=O)[O-])n1
-8,.,Cn1c(N)c(C(=O)c2ccc(Cl)c(S(=O)(=O)N3CCCC3)c2)c(=O)[nH]c1=O
8,.,O=C(Nc1nccs1)C1(S(=O)(=O)c2ccc(Cl)cc2)CC1
-2,.,c1ccc(OCc2nc(-c3ccccn3)n[nH]2)cc1
8,-9.8,COc1ccc(/C=N/c2nc3ccc(Br)cc3s2)cc1
.,-1.2,O=C(Nc1ccc(Cl)cc1)c1ccc2nonc2c1
12,-0.8,COc1ccc2cc(C(C)c3nc4ccccc4[nH]3)ccc2c1 (stereo not drawn)
6,.,CC(=O)N1N=C(Cn2cnc3c(=O)n(C)c(=O)n(C)c32)OC1c1ccc2c(c1)OCO2 (stereo not drawn)
.,-0.7,COC(=O)c1cc(OC)c(OC)cc1NC(=O)Nc1cccc(Cl)c1

Sa helicase inh,MgrA-DNA mod,Molecule
.,-3.5,CC(=O)c1nnn(-c2cc(Cl)cc(Cl)c2)c1C
0,-2.4,O=C(NC1CCCC1)C(c1ccncc1)N(CCCN1CCOCC1)C(=O)c1ccc(-c2ccccc2)[nH]1 (stereo not drawn)
1,-1.1,O=C(Nc1ccccc1Cl)c1cnsn1
.,-0.4,Cc1cc(C)c2nc3s/c(=C\c4cc5c(cc4Br)OCO5)c(=O)n3c2c1
-21,2.8,Cc1cc(C(=O)OCC(=O)N2CCC(C)CC2)c2ccccc2n1
-8,.,O=C(Nc1nc2ccc(S(=O)(=O)N3CCCC3)cc2s1)c1ccccc1
8,.,CN1CCN(C(=O)CNC(=O)C23CC4CC(CC(C4)C2)C3)CC1
13,1.3,O=C(/C=C/c1ccccc1Cl)N1CCCCC1
-15,.,Oc1ccc(/C=N/NC(=S)Nc2cccnc2)cc1
3,-3.3,N#CSc1ccc(N2CCOCC2)cc1
-27,.,CCOC(=O)C1CCCN(c2nc3c(S(=O)(=O)c4ccccc4)nnn3c3ccccc23)C1 (stereo not drawn)
-3,.,OC1CCCN(CC(O)COc2ccc3ccccc3c2)C1 (stereo not drawn)
.,-0.3,Cc1cc(-c2nn(C)c(=O)c3ccccc23)cc(C)c1O
.,-1.9,CCOC(=O)c1c(N)sc2c1CCCC2
-1,1.9,Cc1cc(C)c2nc(NCCNC(=O)C3CCCCC3)c(C#N)cc2c1

Sa helicase inh,MgrA-DNA mod,Molecule
9,-2.2,CCNC(=S)Nc1ccccc1
2,-1.6,COc1ccc(-c2cc(C(F)(F)F)nc(SCCC(=O)Nc3ccccc3)n2)cc1
-8,.,CC(C)(C)OC(=O)N1CCC(C(=O)OCc2ccc(C#N)cc2)CC1
.,-2.3,COc1ccc(OC)c(Sc2cc(-n3cccc3)c(Cl)cc2[N+](=O)[O-])c1
-15,1.9,COc1cc(C2CSc3nc4sc5c(c4c(=O)n32)CCCC5)cc(Cl)c1O (stereo not drawn)
4,.,O=C(O)c1cn(Cc2ccccc2Cl)c2ccc(S(=O)(=O)N3CCOCC3)cc2c1=O
1,.,CCCn1c(SC(C)C(=O)c2ccc(NS(C)(=O)=O)cc2)n[nH]c1=O (stereo not drawn)
35,.,CCN(C(=O)c1cn(C)c(=O)c2cc(OC)c(OC)cc12)c1ccc(F)cc1
11,-1.0,Cc1c(Cl)cccc1NC1=NS(=O)(=O)c2ccccc21
.,-0.9,[N-]=C=N[n+]1ccc2ccccc2c1C(=O)c1ccc(Cl)cc1
14,.,CCOC(=O)c1cccc(NC(=O)c2cc3c(=O)[nH]c4ccccc4c3s2)c1
-15,1.1,Cc1cccc(N(C)C(=O)CCS(=O)(=O)c2ccc3c(c2)SC(C)C(=O)N3)c1 (stereo not drawn)
-2,2.6,O=C(N/N=C/c1ccccc1)C1COc2ccccc2O1 (stereo not drawn)
-11,-1.6,O=C(COC(=O)C1CC(=O)N(CCc2ccc(Cl)cc2)C1)c1ccc(Cl)cc1 (stereo not drawn)
-10,.,N#C/C(=C(/O)CN1CCCC1)c1nc(-c2ccccc2)cs1

Compound profiles (already shown). Order of values: Sa helicase inh, MgrA-DNA mod
Record of `CCNC(=S)Nc1ccccc1` → 9, -2.2
Record of `Cc1cccc(N(C)C(=O)CCS(=O)(=O)c2ccc3c(c2)SC(C)C(=O)N3)c1` (stereo not drawn) → -15, 1.1

The list goes on.
Sa helicase inh,MgrA-DNA mod,Molecule
1,1.1,CCC(=O)Nc1sc2c(c1C#N)CCCC2
-4,.,CN(C)Cc1ccc(CNCc2ccccc2OC(F)F)cc1
7,.,CC(OC(=O)C1(c2cccc(F)c2)CCCC1)C(N)=O (stereo not drawn)
-9,.,CCOC(=O)c1c2n(c3ccc(O)cc13)CCC2
.,-1.4,C=CCN1C(=O)/C(=c2\sc3n(c2=O)C(c2ccc(OC)cc2)C(C(=O)OCC)=C(C)N=3)c2ccccc21 (stereo not drawn)
-26,.,Cc1occc1-c1n[nH]c(=O)o1
.,0.6,COC(=O)c1ccsc1N1C(=O)c2ccccc2C1=O
-12,.,CC(C)N(C(=O)Cn1cc(SCC(=O)N2CCOCC2)c2ccccc21)C(C)C
2,.,N#CCc1nc(-c2cc3cc(Br)ccc3oc2=O)cs1
-20,.,CCc1ccccc1N1C(=N)SC2CS(=O)(=O)CC21 (stereo not drawn)
20,-2.4,CC1=C(C)OC(C)(C(=O)/C=C/c2ccccc2)CC1 (stereo not drawn)
6,1.6,COc1ccc(OC)c(S(=O)(=O)N2CCc3ccccc32)c1
2,.,O=C(CN1C(=O)S/C(=C\c2cccs2)C1=O)Nc1ccc(-c2nnc3n2CCCCC3)cc1
18,.,CCCCNC(=O)Cn1cc(C(F)(F)F)ccc1=O
-8,6.2,N/C(=N\OC(=O)Cc1cccs1)c1ccccc1

Sa helicase inh,MgrA-DNA mod,Molecule
9,-2.2,O=C(OCC1OC2C(Oc3nc(=O)ccn32)C1O)c1ccccc1 (stereo not drawn)
-3,-0.8,Cc1cc(SCC(=O)Nc2ccccc2)c2ccccc2n1
-2,1.2,CCOc1ccc(NC(=O)C2CC2)cc1
-7,-0.5,COc1cc(Cc2ccc(N)c(OC)c2)ccc1N
14,-4.3,O=C(O)c1cnc(N2CCCC2)nc1
-31,.,O=S(=O)(NCCc1ccccc1)c1ccc(F)cc1
5,.,BrCC12CC3CC(CC(C3)C1)C2
-26,.,O=C(Nc1ccccc1)Nc1cc(-c2ccccc2)[nH]n1
-5,.,CC(C)(C)c1cc(N)ncn1
-1,.,COc1ccccc1-c1nc2nc(C)cc(=O)n2[nH]1
9,.,Cc1ccc(SCC(=O)c2ccc[nH]2)cc1C
6,.,O=C(c1ccc(N2C(=O)c3ccccc3C2=O)cc1)N1CCN(S(=O)(=O)c2ccccc2F)CC1
-4,.,O=C(NCCc1ccccc1)c1nnc(C(Nc2ccccc2)c2ccc(Cl)cc2)o1 (stereo not drawn)
0,.,Cc1ccc(NC(=O)CSC2=NC(N)=C(C#N)C3(CCCCC3)C2C(N)=O)cc1 (stereo not drawn)
8,4.2,CCn1c(SC)nnc1C1CCCN(C(=O)Cc2cccnc2)C1 (stereo not drawn)

Sa helicase inh,MgrA-DNA mod,Molecule
-83,.,CCN(CC)c1ccc(/C=N/N(CCC#N)C2=NS(=O)(=O)c3ccccc32)cc1
.,-0.6,O=C(Oc1nnc(SCCS(=O)(=O)c2ccc(F)cc2)n1C1CC1)c1cccs1
22,.,CC(=O)Nc1cc(NC(C)=O)cc(C(=O)OCC(=O)N2CC(C)OC(C)C2)c1 (stereo not drawn)
-23,0.2,N#CCCN(C(=O)c1cccs1)c1ccccc1F
-4,-7.4,O=C(CCC1CCCC1)N1CCN(C2CCCCC2)CC1
1,.,Cc1ccc(NC(=O)CSc2ccnc(=O)[nH]2)cc1
9,4.2,CCS(=O)(=O)N1CCN(Cc2nc3sc4c(c3c(=O)[nH]2)CCC(C(C)(C)C)C4)CC1 (stereo not drawn)
.,2.5,Cc1cc(SC(=O)N/C=C/c2ccco2)c(C)cc1Cl
.,-2.2,COc1ccc(-c2nc(=O)c3ccccc3o2)cc1OC
.,1.6,COc1ccc(C2C(C#N)=C(N)Oc3n[nH]c(C)c32)cc1COc1cccc(Cl)c1 (stereo not drawn)
14,0.2,CC(CCN1CCN(C)CC1)c1ccccc1 (stereo not drawn)
15,5.8,C/C(=N\NC(=O)c1ccc(Br)o1)c1ccc(N)cc1
-1,-0.5,CCn1c2ccccc2c2cc(C=Nc3ccc(OC)cc3)ccc21
5,.,c1cc(N2CCOCC2)nnc1N1CCOCC1
8,.,NNC(=O)/C=C/c1ccc(-c2ccc(F)cc2)o1

Sa helicase inh,MgrA-DNA mod,Molecule
2,0.7,O=C(CSc1cn(CC(=O)N2CCCC2)c2ccccc12)Nc1ccccc1
26,.,CC1CCCCC1NS(=O)(=O)c1ccc(S(=O)(=O)N2CCN(CCC#N)CC2)cc1 (stereo not drawn)
.,-0.2,O=c1[nH]c(=S)[nH]c(O)c1C=Nc1cc(C(F)(F)F)cc(C(F)(F)F)c1
10,0.2,Cc1ccc(C(O)c2ccccc2)s1 (stereo not drawn)
-6,.,Cc1cc(=O)n2nc(N(C)CC(=O)O)sc2n1
-2,-2.3,CN(C)C(=O)CSc1nc2ccc(C(=O)c3ccccc3)cc2[nH]1
12,.,CCOC(=O)N1CCN(CC(O)COC2C3(C)CCC(C3)C2(C)C)CC1 (stereo not drawn)
2,.,Cc1cc(S(=O)(=O)/N=C/N(C)C)c(C)cc1Cl
-10,.,CN(C)CC(=O)Nc1ccc(S(N)(=O)=O)cc1
33,.,OCCNC(=S)NC1CC2C=CC1C2 (stereo not drawn)
7,1.4,c1ccc2[nH]c(CCn3c4ccccc4c4ccccc43)nc2c1
14,.,Cc1ccc(NC(=O)Cc2nc(COC(=O)C3CC(=O)N(Cc4ccco4)C3)cs2)cc1 (stereo not drawn)
9,.,Cc1cc(C)nc(N/N=C/C2=C(O)CC(C)(C)CC2=O)n1
-9,2.1,CN(C)S(=O)(=O)N(Cc1ccc(Br)cc1)c1ccccc1
-17,0.0,CC1=CC(c2ccoc2)c2c(oc(N)c(C#N)c2=O)S1 (stereo not drawn)

3 compounds already listed, arranged by the number in MgrA-DNA mod, high to low:
Sa helicase inh,MgrA-DNA mod,Molecule
7,1.4,c1ccc2[nH]c(CCn3c4ccccc4c4ccccc43)nc2c1
10,0.2,Cc1ccc(C(O)c2ccccc2)s1 (stereo not drawn)
-17,0.0,CC1=CC(c2ccoc2)c2c(oc(N)c(C#N)c2=O)S1 (stereo not drawn)

Later entries
Sa helicase inh,MgrA-DNA mod,Molecule
-16,.,CCC(Nc1ccccc1)C(=O)N/N=C/c1ccccc1O (stereo not drawn)
-7,.,Cn1c(N)c(NC2CC(C)(C)NC(C)(C)C2)c(=O)[nH]c1=O
-21,.,CCC(=O)NC(C)c1nc2ccccc2n1Cc1ccccc1C (stereo not drawn)
.,2.8,O=C1CCN(c2cccc(F)n2)CC1
11,-2.8,CC(Oc1ccccc1)C(=O)Nc1c[nH]c(=O)[nH]c1=O (stereo not drawn)
